# Assay outcomes (PubChem)
# Cruzain noTriton – cruzain (T. cruzi) inhibition without detergent; hit rate 2.3% among 200,000; AID 1476; Potency, µM, without a hit: max response, negative = inhibition, usual class: inhibitors; P25779; purified cruzain, Z-FR-AMC fluorescence, no detergent; active = well fitted curve in the direction sought with a large enough effect; inconclusive = small, poorly fitted or top-dose-only effect, or another doubt; inactive = no such curve, though single readings can be large; an effect the other way counts as inactive or inconclusive;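 note: plate controls were enzyme without inhibitor for no effect and buffer without enzyme for full effect; nearly all actives have a fitted effect of over 40% in size; top concentration of the series not given in the record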
# Target sequence (P25779 123-467 limits assumed): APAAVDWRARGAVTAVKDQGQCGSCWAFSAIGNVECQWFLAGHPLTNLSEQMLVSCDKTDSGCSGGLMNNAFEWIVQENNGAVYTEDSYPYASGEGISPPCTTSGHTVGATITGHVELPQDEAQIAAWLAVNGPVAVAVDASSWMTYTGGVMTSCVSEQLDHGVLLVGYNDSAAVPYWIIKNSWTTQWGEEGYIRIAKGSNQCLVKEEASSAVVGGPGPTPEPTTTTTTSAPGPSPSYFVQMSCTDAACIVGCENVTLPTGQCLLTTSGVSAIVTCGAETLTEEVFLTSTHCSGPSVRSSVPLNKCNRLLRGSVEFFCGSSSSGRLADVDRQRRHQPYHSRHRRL
#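 Purified cruzain at 1.5 nM, pre-incubated 15 min with compound at room temperature in 100 mM sodium acetate pH 5.5, 5 mM DTT, 0.00005% Triton X-100. Reaction started with 2 uM Z-FR-AMC; AMC fluorescence increase over 60 s gives rate.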
# LASV entry inh – blocks Lassa virus binding to or entry into cells; Lassa virus pseudotype entry inhibition, cell reporter; control for the full effect not named in the record; Potency, µM (series often up to 37.9 µM), inactives show at the top dose activity change, negative = inhibition, hits mostly inhibitors; hit rate 1.2% among 300,000; AID 540256; active means well fitted inhibition curve with a large enough effect; inconclusive means small, poorly fitted or top-dose-only effect, or effect the other way; inactive means flat fitted curve, though single readings scatter; tested in HEK293 cells; note: % is set by controls: 0 for no effect and ±100 for the full control effect; nearly all actives have a fitted effect of over 50% in size; luciferase read-out
# SARS PLP yeast – blocks SARS-CoV papain-like protease in a yeast assay. AID 485353. Potency, µM (titrated, usually from 32.9 µM), for the others: at the top dose activity, positive = growth rescue. S. cerevisiae expressing SARS-CoV PLpro, growth rescue; control for the full effect not named in the record. hit rate 0.19% among 330,000; note: 0% is about no effect; nearly all actives have a fitted effect of over 55% in size; growth read by luminescence after 48 h
# NS1 inh – blocks influenza NS1 protein function | AID 2326 | hit rate 0.4% among 270,000 | S. cerevisiae slowed by influenza A NS1, growth recovery by OD600 | Potency, µM (highest dose often 46.1 µM), inactives show at the highest dose activity, positive = more growth; note: actives are rising curves; nearly all actives have a fitted effect of over 50% in size
#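 Compounds were scored for reversing the slow growth caused by influenza A NS1 in S. cerevisiae, measured by optical density at 600 nm. Assay medium contained 2% galactose at pH 6.0; NS1-free yeast of the same strain were the positive control.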
# MARV entry inh – inhibitors of Marburg virus binding or cell entry; Potency, µM (highest dose often 37.8 µM), without a hit: top-dose activity change, negative = inhibition, actives largely listed as inhibitors; hit rate 1.8% among 300,000; Marburg virus pseudotyped entry inhibition, cell reporter; control for the full effect not named in the record; about a third of the inactives were read at about 46 µM; AID 540276; active = well fitted inhibition curve with a large enough effect; inconclusive = small, poorly fitted or top-dose-only effect, or effect the other way; inactive = flat fitted curve, though single readings scatter; tested in HEK293 cells; about a fifth of its hits are not listed in these tables; note: % is set by controls: 0 for no effect and ±100 for the full control effect; luciferase read-out
# RE007 growth inh – less growth of the S. pombe RE007 Vpr strain; hit rate 0.21% among 360,000; AID 651644; S. pombe RE007 Vpr strain, BacTiter-Glo ATP luminescence, 24 h; control for the full effect not named in the record; Potency, µM (series often up to 92.2 µM), without a hit: top-dose activity change, negative = less growth; active = well fitted falling curve with a large enough effect; inconclusive = small, poorly fitted or top-dose-only effect; inactive = no such curve, though single readings can be large or run the other way;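 note: % is set by controls: 0 for no effect and ±100 for the full control effect; nearly all actives have a fitted effect of over 50% in size; the assay follows cell death caused by Vpr and the record does not say whether a fall means rescue or toxicity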
#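 Fission yeast RE007 carrying one integrated HIV-1 vpr copy, seeded at OD 0.01 in PMG+AL medium with 23 nL pinned compound. Grown 24 h at 30 degrees; viability read by BacTiter-Glo luminescence after 5 min.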
# Cruzain inh Det – blocks cruzain activity in presence of Triton detergent | AID 1478 | purified cruzain, Z-FR-AMC fluorescence, 0.01% Triton | hit rate 0.43% among 200,000 | P25779 | Potency, µM, for inactives: max response, negative = inhibition, hits mostly inhibitors; active = well fitted curve in the direction sought with a large enough effect; inconclusive = small, poorly fitted or top-dose-only effect, or another doubt; inactive = no such curve, though single readings can be large; an effect the other way counts as inactive or inconclusive;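 note: plate controls were neutral wells for no effect and buffer without enzyme for full effect; nearly all actives have a fitted effect of over 40% in size; top concentration of the series not given in the record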
#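 Detergent-containing run (0.01% Triton X-100) in acetate buffer pH 5.5 with 5 mM DTT: enzyme at 1.5 nM final, 15 min compound preincubation at room temperature, then 2 uM Z-FR-AMC substrate. Activity taken as 60 s fluorescence increase at 360/450 nm.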
# StopGo reporter – lowers the luciferase signal of an FMDV 2A StopGo reporter; human cells with a luciferase reporter of 2A StopGo recoding; control for the full effect not named in the record; Potency, µM (doses to about 57.9 µM), for the others: at the top dose signal change, negative = less light; hit rate 1.2% among 410,000; AID 1159524; active = well fitted falling curve with a large enough effect; inconclusive = small, poorly fitted or top-dose-only effect; inactive = no such curve, though single readings can be large or run the other way; tested in HEK293T cells; note: % is set by controls: 0 for no effect and ±100 for the full control effect; nearly all actives have a fitted effect of over 45% in size; luciferase light after 4 h
# * = called active by the depositor; u = inconclusive; x = not tested or not shown; & = joins results of further samples; [ ] = dose if it differs, or a comment. Unless noted, calls come from the whole dose curve; as a rule, active means well fitted rising curve with a large enough effect; inconclusive means small, poorly fitted or top-dose-only effect; inactive means no such curve, though single readings can be large or run the other way. Potency is the fitted concentration of half-maximal effect.
SMILES,Cruzain noTriton,LASV entry inh,SARS PLP yeast,NS1 inh,MARV entry inh,RE007 growth inh,Cruzain inh Det,StopGo reporter
COc1cc2c(cc1OC)C(c1cccs1)N(C(=O)c1cccc(S(=O)(=O)N(C)C)c1)CC2 (stereo not given),x,u,1%,-2%,-24%[46.1 µM],-1%,x,-10%
COc1ccc(NC(=O)/C(=C\c2ccc3c(c2)OCO3)NC(C)=O)cc1,-6%,u,-14%,-5%,u,2%,-1.7%,29%
O=C(CCn1c(=O)sc2ccccc21)NCc1ccccc1,-6%,x,4%,-8%,x,3%,3.1%,9%
COC(=O)c1scc(C#N)c1N/N=C(\C#N)S(=O)(=O)c1ccc(Cl)cc1,x,u,1%,0%,u,-5%,x,14µM*
Cc1ccccc1Nc1nc(N)nc(C)c1Br,x,10%[46.1 µM],x,x,u,-16%,x,-15%
CCOC(=O)/C=C1\SCC(=O)N1CC(=O)NCc1ccc(OC)c(OC)c1,x,-9%,2%,5%,11%[46.1 µM],-10%,x,15%
Cc1ccc(-n2ncc(C(=O)N3CCN(C4CCCCC4)CC3)c2C2CCN(C(=O)OC(C)(C)C)CC2)cc1C,-12%,2µM*,x,x,x,x,-2.4%,u
Cn1c(NN=O)nc2ccccc21,x,u,0%,7%,u,-12%,x,2%
CC(C)c1ccc(NC(=O)C2CC3CCC2C3)cc1 (stereo not given),x,u,-13%,-24%,u,u,x,24%
O=C(Nc1cccc(S(=O)(=O)C(F)F)c1)c1ccc(S(=O)(=O)N2CCOCC2)cc1,24%,-10%,2%,6%,u,20%,3.9%,u
CC(C)(C)c1ccc(C(=O)NCC(=O)N/N=C/c2ccccc2OCC(=O)O)cc1,x,-1%[46.1 µM],-1%,2%,10%[46.1 µM],-23%,x,8%
CCn1cc(C(=O)N2CCN(c3ccccc3)CC2)c(=O)c2cc(S(=O)(=O)N3CCC(C)CC3)ccc21,u,3%[46.1 µM],x,x,u,x,-7.9%,4%
Cc1ccc(-c2nc3ccc(Br)cn3c2Nc2ccc3c(c2)OCO3)o1,5%,23%[46.1 µM],x,x,-23%[46.1 µM],x,-1.1%,5%
COc1ccc(CCNC(=O)c2cnn(-c3ccc(C)c(C)c3)c2NC(=O)c2ccco2)cc1OC,-18%,-2%,x,-22%,u,-17%,1.6%,1%
COc1ccc(/C=C/CN2CCN(Cc3ccccc3)C(CCO)C2)cc1 (stereo not given),x,-43%,0%,2%,u,7%,x,-3%
CN1CCN(C(=O)Cn2ncc3c4ccccc4n(Cc4ccc(F)cc4)c3c2=O)CC1,-1%,-4%[46.1 µM],x,x,-19%[46.1 µM],x,-5.8%,-12%
COc1ccc(-n2c(C)c(C(C)=O)c3cc(OC(=O)COc4ccccc4)ccc32)cc1,-11%,9%[46.1 µM],x,x,u,x,-2.6%,-26%
Cc1nc2ccc(NC(=O)c3ccc(S(=O)(=O)N(C)c4ccccc4)cc3)cc2s1,u,u,-2%,u,u,3%,-4.0%,22µM*
COc1ccc(CCNC(=O)C/C(C)=N/NC(=O)C23CC4CC(CC(C4)C2)C3)cc1OC,u,5%,6%,24%,29%,5%,1.9%,0%
CCOc1ccc(/C=N/N(C)c2ccccc2)cc1OC,20%,u,-3%,-10%,u,-12%,-3.7%,31%[activator]
COc1ccc(/C=C(/NC(=O)c2ccccc2)C(=O)NC2CCS(=O)(=O)C2)cc1 (stereo not given),-10%,-14%,3%,0%,2%,3%,-4.7%,7%
O=[N+]([O-])c1cc(C(F)(F)F)ccc1Oc1cccnc1[N+](=O)[O-],-5%,-4%,-3%,15%,6%,8%,-5.4%,-1%
CC(=O)c1sc2nc(-c3cccs3)ccc2c1N,-8%,u,5%,-6%,1%,-29%,-13%,38%[activator]
N=C1c2ccccc2CN1NC(=O)c1cccc(S(=O)(=O)N2CCCCC2)c1,-7%,22%,-4%,12%,-1%,-13%,-2.0%,-2%
COC(=O)C1=CO[C@@H](C)[C@@H]2CN3CC[C@@]4(C(=O)Nc5ccccc54)[C@@H]3C[C@H]12,-1%,-20%,8%,-8%,-7%&15%,4%,-1.9%,0%
Cc1ccc(NC(=O)c2ccc3c(c2)OCCO3)cc1,-1%,4.5µM*,-9%,-61%,13µM*,-12%,-2.8%,0%
O=C(CCN1C(=O)/C(=C/c2ccccc2F)SC1=S)NC1C=CS(=O)(=O)C1 (stereo not given),x,x,3%,u,x,11%,x,-11%
C/C(=N\NC(=O)C(C)Sc1ccccc1)c1ccc([N+](=O)[O-])cc1 (stereo not given),x,x,7%,3%,x,3%,x,u
CCc1ccc(NC(=O)Cn2c(=O)c(CNc3ccccc3)cc3cc(OC)c(OC)cc32)cc1,3%,4%[46.1 µM],x,x,x,x,-2.9%,19%
CCCCCc1nc2c(c(=O)c3ccccc3n2C)c(=O)n1C1CCCCCC1,-11%,16µM*,-3%,0%,u,-7%,-12%,32µM*
Cc1cc(C)c(N2C(=NC(=O)CCCC(=O)O)SC3CS(=O)(=O)CC32)c(C)c1 (stereo not given),2%,-2%,-2%,2%,0%,3%,2.7%,16%
C/C(=N\O)c1ncc(C(F)(F)F)cc1Cl,x,x,0%,1%,7%[46.1 µM],40%,x,-1%
CNC(=O)Oc1ccccc1OC(C)C,3%,x,x,x,x,8%,4.4%,-13%&-3%
O=C(O)CSc1nc2c(c(=O)[nH]1)CCCC2,2%,5%,2%,-2%,8%,-4%,3.5%,-19%
O=C(CCNC(=O)c1ccccc1Cl)NCc1ccncc1,x,u,3%,x,-19%,10%,x,-7%
O=C(Cn1cc(C(=O)C(F)(F)F)c2cc(Br)ccc21)N1CCOCC1,x,x,0%,-1%,x,-1%,x,-10%
O=S(NCc1ccccc1)C12CC3CC(CC(C3)C1)C2 (stereo not given),4%,9%,1%,-9%,-7%,-5%,6.8%,x
CCOCCCn1c(SCC(=O)NCCCOC)nc2c(sc3ccccc32)c1=O,1%,-21%[46.1 µM],x,x,x,x,2.0%,-3%
COc1cc(NC(=S)NCCCN2CCOCC2)c(OC)cc1Cl,x,-2%[46.1 µM],1%,x,u,6%,x,-2%
O=P(O)(O)c1cc(-c2ccccc2)oc1-c1ccccc1,x,27%[46.1 µM],-1%,4%,-5%[46.1 µM],-1%,x,-2%
Cc1cn(C2CCC(CO)O2)c(=O)[nH]c1=O (stereo not given),-3%,x,0%,6%,x,4%,3.2%,-19%&7%
CCN(CC)c1ccc(C(=O)OCC(=O)N(C)Cc2ccccc2)cc1,x,u,-2%,-2%,u,6%,x,-27%
CCc1ccccc1NC(=O)CSC1=Nc2ccccc2C2=NC(Cc3ccccc3)C(=O)N12 (stereo not given),-10%,-26%[46.1 µM],x,x,x,x,-2.2%,-9%
O=C(CN1C(=O)NC2(CCCCCC2)C1=O)NC1CC1,x,12%,-4%,x,20%,-16%,x,-14%
CCNC(=O)Cn1nc(C)n2c(cc3c(OC)cccc32)c1=O,-17%,x,x,x,-8%[46.1 µM],x,-0.8%,10%
CCS(=O)(=O)N1CCC(C(=O)N2CCC3(CC2)OCCO3)CC1,6%,-2%,3%,-1%,u,14%,6.4%,11%
Cc1nc2ccccc2c2c1C(=O)N(c1cccc(C(=O)O)c1)C2=O,x,31%[46.1 µM],2%,x,0%[46.1 µM],9%,x,2%
COc1cc(/C=N/Nc2ccc([N+](=O)[O-])cn2)cc(OC)c1O,x,u,-4%,0%,u,-20%,x,u
COc1ccc(C2CC(c3ccccc3Cl)Nc3ncnn32)cc1OC (stereo not given),4%,-1%,-10%,4.5µM*,-5%,3%,0.4%,-21%
COc1ccc(CNC(=O)COc2ccc(OC)cc2)cc1,x,x,1%,-4%,x,-1%,x,-18%
Cc1ccc(C(=O)NCC(C)NC(=O)c2ccc(C)c([N+](=O)[O-])c2)cc1[N+](=O)[O-] (stereo not given),x,-6%,x,x,0%,13%,x,-14%
O=C(Nc1cc(-c2nc3cc(Cl)ccc3o2)ccc1Cl)c1cccc2ccccc12,-7%,8%[46.1 µM],x,x,8%[46.1 µM],x,0.5%,47%[activator]
Cc1ccccc1NCC(=O)c1ccc(Br)cc1,-2%,-3%,3%,5%,8%,-19%,-5.2%,26%
CN(CC(=O)Nc1cccc2c1CCCC2)S(=O)(=O)c1ccc(Br)cc1,4%,5%,2%,1%,29%,-5%,0.6%,0%
CCOC(=O)N1CCN(Cc2nc3cc(NC(=O)c4ccc([N+](=O)[O-])cc4)ccc3n2C(C)C)CC1,u,1%[46.1 µM],x,x,u,x,-7.3%,0%
Cc1cc(C)c(C)c(OCc2nc(-c3cccnc3)no2)c1,8%,5%,-5%,19%,-3%,-24%[3.69 µM],-2.7%,-24%
COC(=O)C1=C(C)NC(=O)NC1c1cccc(OC)c1OCc1ccccc1 (stereo not given),-5%,-24%,-10%,8%,2%,-8%,-2.1%,-17%
O=C(NC1CCCCCC1)c1cc2n(n1)C(C(F)(F)F)CC(c1ccco1)N2 (stereo not given),14%,-12%,-1%,-1%,u,2%,-5.5%,-20%
COc1ccc(C)cc1NC(=O)c1ccccc1NS(=O)(=O)c1ccc(Cl)s1,x,x,-5%,-65%,x,-1%,x,-25%
N#CC1=C(S)N(c2ccccc2)C2(CCCCC2)NC1=O,-5%,4%,-9%,13%,0%,23%,-4.6%,-28%

# (continued)
SMILES,Cruzain noTriton,LASV entry inh,SARS PLP yeast,NS1 inh,MARV entry inh,RE007 growth inh,Cruzain inh Det,StopGo reporter
CC(C)(C)c1cc(CCC(=O)NNC(=S)NC(=O)c2ccccc2)cc(C(C)(C)C)c1O,u,u,5µM*,-18%,u,20%,1.8%,-25%
O=C(NCCc1ccc(Cl)cc1)c1ccc(Br)s1,x,x,12%,-3%,x,5%,x,14%
COC(=O)c1ccc(NC(=O)C(C)Oc2ccccc2)cc1 (stereo not given),7%,-7%,-2%,-15%,1%,-27%,0.5%,-8%
CCOC(=O)c1c(CC(C)C)csc1NC(=O)COC(=O)c1cc(OC)c(OC)cc1[N+](=O)[O-],-26%,x,-14%,-1%,-1%,4%,-4.6%,-1%
